Screening results as filed in PubChem.
Mtb H37Rv: Mycobacterium tuberculosis H37Rv growth inhibition, putative kinase inhibitor library, confirmatory dose response (AID 2842). inhibition, % at 10 µg/mL, or IC90 in µg/mL where a hit was titrated. M. tuberculosis H37Rv growth inhibition; higher % means a stronger effect; some inactives read as strong as hits. 24,000 compounds, 5.2% hits;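 active = confirmed in a dose series; about a fifth of its hits are not listed in these tables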;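 also: bacteria incubated one week before Alamar blue readout; 0% = bacteria only wells and 100% = bacteria with high antibiotic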
Numbers without * were called inactive. The list is partial. The share of hits here may be higher or lower than overall.

SMILES	Mtb H37Rv
CC1CCCN(c2nc3c(c(=O)[nH]c(=O)n3C)n2Cc2ccccc2Cl)C1 (stereo not given)	14%
CCOC(=O)CSCC(=O)Nc1nnc(-c2ccc(OC)cc2OC)s1	-4%
COC(=O)c1ccc(C(=O)Nc2ccc3nc(SC)sc3c2)cc1	73%
O=C1NC(=Nc2ccccc2)c2c1cccc2[N+](=O)[O-]	-9%
CC12CC(NC(=O)N1c1cccc(F)c1)c1cc([N+](=O)[O-])ccc1O2 (stereo not given)	-11%
O=C(CCCCl)Nc1c(C(=O)Nc2ccc(F)c(F)c2)oc2ccccc12	26%
COc1cccc(N2CC(NC(=O)NCc3ccco3)CC2=O)c1 (stereo not given)	-5%
CC(=O)Nc1ccc(Nc2nc3c(S(=O)(=O)c4cccc(Cl)c4)nnn3c3ccsc23)cc1	-4%
COc1ccc(S(=O)(=O)n2nc(OC(=O)c3ccco3)cc2N)cc1	-4%
Cc1cccc(-c2nnc(NC(=O)c3ccco3)s2)c1	21%
COc1ccc2nc(NC(=O)c3ccc(Cc4ccccc4)cc3)sc2c1	58%
O=C1/C(=C/c2ccccc2)Oc2c1ccc(O)c2CN1CCN(CCO)CC1	-16%
CCOC(=O)COc1cccc2c(=O)n(CC(=O)NCCc3ccc(OC)c(OC)c3)ccc12	-4%
Cc1cc(OC(=O)c2c(F)cccc2F)c([N+](=O)[O-])c(=O)[nH]1	-1%
CCc1cccc(OCC(O)Cn2c(N3CCCC(C)C3)nc3c2c(=O)[nH]c(=O)n3C)c1 (stereo not given)	45%
CC(C)Oc1ccc(NC(=O)CC2CCS(=O)(=O)C2)cc1 (stereo not given)	-4%
O=C(Nc1nnc(-c2ccc(Br)cc2)o1)c1c(F)cccc1F	77%
Cc1ccc(NC(=O)CCCN(C)S(=O)(=O)c2ccc(Cl)cc2)cc1	18%
O=C(CSc1ccc2nnc(-c3ccccn3)n2n1)Nc1ccccc1F	-8%
CN(C)c1ccc(C(=O)Nc2sc3c(c2C(N)=O)CCCCC3)cc1	9%

Structures shown so far that have a furan ring, fused or not:
SMILES	Mtb H37Rv
O=C(CCCCl)Nc1c(C(=O)Nc2ccc(F)c(F)c2)oc2ccccc12	26%
COc1cccc(N2CC(NC(=O)NCc3ccco3)CC2=O)c1 (stereo not given)	-5%
COc1ccc(S(=O)(=O)n2nc(OC(=O)c3ccco3)cc2N)cc1	-4%
Cc1cccc(-c2nnc(NC(=O)c3ccco3)s2)c1	21%

Remaining list, next part
SMILES	Mtb H37Rv
O=C(CSc1ccc(-c2ccc(-n3cccn3)cc2)nn1)Nc1ccc([N+](=O)[O-])cc1	-6%
O=C(NNc1ncnc2c1cnn2-c1ccc(Cl)cc1)c1cccc([N+](=O)[O-])c1	9%
O=C(Nc1nnc(-c2ccc(Br)cc2)o1)c1ccc2c(c1)CCCC2	17µg/mL*
CC1CCc2sc(NC(=O)c3cc([N+](=O)[O-])cc([N+](=O)[O-])c3)c(C(N)=O)c2C1 (stereo not given)	2%
O=C1C(Cl)=C(N2CCN(Cc3ccccc3)CC2)C(=O)N1c1cc(Cl)ccc1Cl	55%
O=C(NCc1ccccn1)c1ccc2c(=O)n(Cc3ccccc3Cl)c(=S)[nH]c2c1	-3%
CCOC(=O)CCC(=O)Nc1scc2c(C(=O)OCC)nn(-c3ccc(C)cc3)c(=O)c12	6%
Cc1csc(NC(=O)CSc2nnc3[nH]c(=O)c(C)c(C)n23)n1	-8%
O=C(CC1SC(N=Nc2c(O)[nH]c3ccccc23)=NC1=O)Nc1ccccc1 (stereo not given)	58%
CN1CCN(C(CNC(=O)c2cc(Cl)ccc2Cl)c2ccc(F)cc2)CC1 (stereo not given)	-9%
Cc1cn2c3c(=O)n(C)c(=O)n(C)c3nc2n1CC(=O)O	-12%
COc1cccc(-n2c(SCC(=O)Nc3cccc4ccccc34)nc3c([nH]c4ccccc43)c2=O)c1	6%
CCSc1nnc(NC(=O)CSc2nc3c([nH]c4ccccc43)c(=O)n2-c2ccccc2)s1	10%
Nc1nc(SCc2cccc(Cl)c2)[nH]c(=O)c1NC(=O)c1ccc(C(F)(F)F)cc1	-6%
C=CCOCC(O)Cn1c(NCCCOC(C)C)nc2c1c(=O)[nH]c(=O)n2C (stereo not given)	-15%
CCOC(=O)COc1cccc2c(=O)n(CC(=O)Nc3cc(OC)ccc3OC)ccc12	3%
COc1ccc(Cn2cc3c(-c4ccc(C)c(C)c4)nnc-3c3cc4c(cc32)OCO4)cc1	2%
COc1cccc(NC(=O)C(=O)c2c[nH]c3ccccc23)c1	13%
CCOc1cccc(-c2cc(C(=O)N/N=C/c3ccccn3)[nH]n2)c1	66%
CC(C)CC1C(C#N)=C(N)Oc2n[nH]c(-c3ccccc3)c21 (stereo not given)	2%

Shown as comma-separated lines: part of the list above
compound,Mtb H37Rv
O=C(NCc1ccccn1)c1ccc2c(=O)n(Cc3ccccc3Cl)c(=S)[nH]c2c1,-3%
CCOC(=O)CCC(=O)Nc1scc2c(C(=O)OCC)nn(-c3ccc(C)cc3)c(=O)c12,6%
Cc1csc(NC(=O)CSc2nnc3[nH]c(=O)c(C)c(C)n23)n1,-8%

(more compounds)
SMILES	Mtb H37Rv
NC(=O)c1ccsc1NC(=O)c1cc2ccccc2oc1=O	1%
O=C(CSc1ncnc2c1nnn2Cc1ccccc1F)Nc1cccc(Cl)c1	-4%
Cc1ccccc1-c1nnc(NC(=O)c2cccc(F)c2)s1	-1%
COC(=O)CSc1ncnc2c1cnn2-c1ccc(F)cc1	4.5µg/mL*
CCOc1ccc(CC(=O)Nc2ccc(-c3ccc4nnc(C)n4n3)cc2)cc1	23%
CCOc1ccc(CC(=O)NCCc2cc3ccc(C)cc3[nH]c2=O)cc1	0%
O=C(Nc1c2c(nn1-c1ccc(F)cc1)CS(=O)C2)c1cccc(Br)c1 (stereo not given)	0%
CCN(CC)S(=O)(=O)c1ccc(C(=O)Nc2nnc(-c3cc(C)ccc3C)o2)cc1	13µg/mL*
Cc1nnc2ccc(-c3ccc(NS(=O)(=O)c4cccc(C(F)(F)F)c4)cc3)nn12	-8%
COCCSc1nc2c(c(=O)[nH]c(=O)n2C)n1CCCc1ccccc1	6%
COc1cc2c3nnc(-c4ccc(C)c(C)c4)c-3cn(Cc3ccccc3)c2cc1OC	7.3µg/mL*
Cc1cc(C)nc(NS(=O)(=O)c2ccc(NC3OC(=O)c4ccccc43)cc2)n1 (stereo not given)	3%
COc1cccc(Nc2ncnc3nc[nH]c23)c1	16%
COc1ccc(OCC(O)Cn2c(Nc3cccc(C)c3)nc3c2c(=O)[nH]c(=O)n3C)cc1 (stereo not given)	0%
CCCCc1ccc(NS(=O)(=O)c2c[nH]c(=O)[nH]c2=O)cc1	1%
CCN1C(=O)c2cccc3c(NC(=O)Nc4ccc(Cl)cc4)ccc1c23	-14%
O=[N+]([O-])c1ccc(S(=O)(=O)NCC(c2cccs2)N2CCc3ccccc3C2)cc1 (stereo not given)	-20%
COc1ccc(-c2nc(C(N)=O)c3[nH]c(=O)n(-c4ccc(C(C)(C)C)cc4)c3n2)c(OC)c1	17µg/mL*
C=CCn1c(=NC(=O)CN2C(=O)CCC2=O)sc2cc(C(=O)OC)ccc21	-11%
COc1ccccc1NC(=O)CSc1nc(N)c(NC(=O)c2ccccc2F)c(=O)[nH]1	0%

Reformatted as labelled records: part of the list above.
> COc1ccc(OCC(O)Cn2c(Nc3cccc(C)c3)nc3c2c(=O)[nH]c(=O)n3C)cc1 (stereo not given)
  Mtb H37Rv = 0%
> CCCCc1ccc(NS(=O)(=O)c2c[nH]c(=O)[nH]c2=O)cc1
  Mtb H37Rv = 1%

New compounds follow.
SMILES	Mtb H37Rv
CCC(C)Nc1nc2c(c(=O)[nH]c(=O)n2C)n1CC(O)COc1ccc(C)c(C)c1 (stereo not given)	1%
CCc1nnc(NC(=O)CSc2ccnc3c2c(=O)n(C)c(=O)n3C)s1	-7%
Cn1c(SCc2ccc(F)cc2)nnc1-c1c[nH]c2ccccc12	4%
O=C(CCN1C(=O)/C(=C\c2ccco2)SC1=S)Nc1ccccc1O	-7%
O=C(COc1ccc2ccccc2c1)Nc1cc2c3c(c1)CCN3C(=O)CC2	17%
Cc1ccc(S(=O)(=O)Nc2ccc(-n3c(C)nc4ccccc4c3=O)cc2C)c(C)c1	-9%
CC1Cc2nc(SCC(=O)N3CCCc4ccccc43)n(C)c(=O)c2S1 (stereo not given)	17%
CCN(CC)S(=O)(=O)c1ccc(C(=O)Nc2ccc3nc(SC)sc3c2)cc1	12%
CCOC(=O)c1nn(-c2ccc(F)cc2)c(=O)c2c(NC(=O)c3ccc(Cl)c([N+](=O)[O-])c3)scc12	5%
COc1ccc2c(c1)c(=O)c(C(=O)c1ccc(Cl)cc1)cn2CC(=O)Nc1ccc2c(c1)OCCO2	2%
CS(=O)(=O)c1ccccc1C(=O)Nc1nnc(-c2ccc(Br)cc2)o1	-16%
Cc1cccc(NC(=O)CSc2ccc3nnc(-c4ccccc4)n3n2)c1C	-4%
Cc1ccccc1-c1nnc(NC(=O)Cc2ccc(F)cc2)s1	4%
Cc1ccccc1C(=O)Nc1ccc2c(c1)C(=O)NC2=O	-13%
COC(=O)c1c(NC(=O)CC2Nc3ccccc3NC2=O)sc2c1CCC(C)C2 (stereo not given)	-3%
Cc1ccccc1CSC1=NCCN1C(=O)c1ccc(C)c([N+](=O)[O-])c1	-4%
O=c1c2nnn(Cc3ccccc3F)c2ncn1Cc1cccc([N+](=O)[O-])c1	-2%
O=C(CSc1ccc(-c2ccc(-n3ccnc3)cc2)nn1)NCc1ccc(Cl)cc1	-5%
NS(=O)(=O)c1ccc(CCNC(=O)C(=O)NCC(c2ccco2)N2CCc3ccccc32)cc1 (stereo not given)	3%
Nc1[nH]c(N=NC(=O)C2CCCCC2)c2ccccc12	-2%
O=C(Nc1ccc(C(F)(F)F)cc1)c1cnc2sccn2c1=O	4%
CCC(=O)Nc1cccc2c1C(=O)c1ccccc1C2=O	-8%
COc1ccc(-n2ccnc(SCc3ccc(F)cc3Cl)c2=O)cc1OC	-8%
Nc1nc(SCC(=O)Nc2ccc(Cl)c(Cl)c2)[nH]c(=O)c1NC(=O)c1cccs1	-13%
CCOc1ccc2c(c1)O/C(=C\c1ccccc1OS(C)(=O)=O)C2=O	-19%
Cc1ccc(NCC(=O)Nc2ncc(Cc3ccc(Cl)cc3Cl)s2)cc1	-4%
O=C(CCCCCN1C(=O)/C(=C/c2ccccc2)SC1=S)Nc1ccccc1	10%
CCS(=O)(=O)c1ccc(CC(=O)Nc2nnc(-c3ccc4c(c3)OCCO4)o2)cc1	0%
COc1ccc(-c2oc3ccc(C)cc3c(=O)c2O)cc1OC	3%
Nc1nc(SCC(=O)Nc2ccc(Cl)cc2)[nH]c(=O)c1NC(=O)c1cccs1	-20%
CN1CCc2cc(C(CNC(=O)Cc3ccc(-c4ccccc4)cc3)N3CCOCC3)ccc21 (stereo not given)	-3%
COc1ccccc1NC(=O)CSc1ccc2nnc(-c3ccc(F)cc3)n2n1	2%
Cc1csc2nc(-c3cccc(NC(=O)c4cc5ccccc5oc4=O)c3)cn12	-18%
CN(C)S(=O)(=O)c1ccc(C(=O)Nc2sc3c(c2C(N)=O)CCCCC3)cc1	0%
CCOC(=O)c1c(NC(=O)c2cccc(C)c2)sc2c1CCC2	10%
CCc1ccccc1NC(=O)CN1N=NC2C(=O)N(c3ccc(F)c(F)c3)C(=O)C21 (stereo not given)	1%
COc1ccc(-c2nc(NC(=O)c3ccc(Cl)cc3)sc2C)cc1	-2%
O=C(C1CC1)N(Cc1ccccc1)c1nnc(C23CC4CC(CC(C4)C2)C3)s1	17%
O=C(Nc1nc(-c2ccncc2)cs1)c1cc(=O)c2ccccc2o1	-6%
Cc1ccccc1-c1nnc(NC(=O)c2ccc(Cc3ccccc3)cc2)s1	8%
CN(C)CCNc1nc(Nc2ccc(F)cc2)c2nccnc2n1	-16%
CCOC(=O)c1ccc(NC(=O)CSc2ncccn2)cc1	49%
O=C(Nc1ncc(Cc2ccc(F)cc2)s1)c1cccc(-n2cnnn2)c1	10µg/mL*
COc1ccc(NC(=O)C(C)n2cnc3scc(-c4ccc(C)cc4)c3c2=O)cc1 (stereo not given)	9%
O=C(Nc1nnc(-c2ccc3c(c2)OCCO3)o1)c1coc2ccccc2c1=O	7%
Nn1c(SCc2cccc(Cl)c2)nncc1=O	13%
CCS(=O)(=O)c1ccc(CC(=O)Nc2nnc(-c3cccnc3)o2)cc1	-10%
Cc1ccc(NS(=O)(=O)c2ccc3[nH]c(=O)[nH]c3c2)cc1C	-20%
CCOc1ccc(NC(=O)c2cnc3c(c(C)nn3-c3ccccc3)c2Cl)cc1	-4%
COc1ccc(C2CC(=O)n3nc(-c4ccc(Cl)c(Cl)c4)nc3S2)cc1 (stereo not given)	2%
O=C(NC1CC(=O)N(c2cccc(F)c2)C1)c1cccc(C(F)(F)F)c1 (stereo not given)	-6%
COc1ccc(-c2[nH]ncc2-c2cscn2)c(O)c1	-10%
COc1cccc(NC(=O)CSc2ccc3nnc(CCNC(=O)c4ccc(F)cc4)n3n2)c1	0%
CCS(=O)(=O)NC1CC(=O)N(c2ccc(OC)cc2)C1 (stereo not given)	-7%
O=C(NCCSc1c[nH]c2ccccc12)c1cc2ccccc2oc1=O	1.6µg/mL*
